Screens (PubChem BioAssay)
Ecoli rRNA inh: reduced GFP signal of wild-type E. coli, primary screen, bacterial rRNA inhibitor project, GFP/RFP fluorescence, OD600, single point; E. coli WT GFP vs humanized-ribosome RFP mutants, 24 h; stronger effect = lower value; DMSO median 0, no signal -100; GFP signal change (wild-type ribosome), % (concentration not given with the values); 1.6% of 350,000 active; AID 720706, 2013;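 active = significant combined selectivity score with lowered wild-type GFP, culture density cut under 30%, mutant RFP and density less affected; inactive = any of these conditions unmet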; note: one replicate is shown; some compounds called inactive have numbers as strong as hits
Ecoli rRNA inh OD600: second read-out of Ecoli rRNA inh, no call of its own (marks repeat the call); OD600 change, %; measured here: OD600 growth;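 optical density of the mix in the first replicate; 0 = DMSO median and -100 = no signal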
Ecoli rRNA inh RFP: also measured in Ecoli rRNA inh; calls as there; RFP signal change, %; measured here: RFP humanized mutant strains;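 first replicate; 0 = DMSO median and -100 = no signal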
* = called active by the depositor. Some of the compounds tested; count on the stated rates, not on these rows.

Compound	Ecoli rRNA inh	Ecoli rRNA inh OD600	Ecoli rRNA inh RFP
CO[C@H]1CN(C)C(=O)c2cc(NC(C)=O)ccc2OC[C@@H](C)N(C(=O)CN2CCOCC2)C[C@H]1C	2	-1	-1.0
Cc1noc(C)c1NC(=O)Nc1ccc2c(c1)C(=O)N([C@@H](C)CO)C[C@H](C)[C@H](CN(C)Cc1ccc(C(=O)O)cc1)OCCCC[C@@H](C)O2	1	15	2.9
COc1ccc(CNC(=O)c2ccc(-n3cncn3)c3ccoc23)cc1OC	-6	-9	-0.7
Cc1c(C(=O)NCC2CC2)sc(=O)n1Cc1cccc(F)c1	2	-3	-5.8
Cc1ccc(S(=O)(=O)N(C)C[C@H]2Oc3ccc(NC(=O)CCN4CCOCC4)cc3C(=O)N([C@@H](C)CO)C[C@@H]2C)cc1	1	5	-0.1
C[C@H]1CN([C@@H](C)CO)C(=O)Cc2cc(NC(=O)CCCN(C)C)ccc2O[C@@H]1CN(C)S(=O)(=O)c1cn(C)cn1	5	5	-1.3
CC(C)NC(=O)N(C)C[C@@H]1Oc2ncc(C#CC3CC3)cc2C(=O)N([C@H](C)CO)C[C@H]1C	0	-4	-5.1
CN1c2ccc(-c3ccc(F)cc3)cc2[C@H]2[C@H](CCN2C(=O)c2cccnc2)[C@@H]1CO	-6	-16	2.3
O=C(C[C@H]1CC[C@@H]2[C@H](COC[C@H](O)CN2C(=O)Cc2ccccc2)O1)NC1Cc2ccccc2C1	-2	12	2.1
C[C@H](CO)N1C[C@H](C)[C@H](CN(C)Cc2cccnc2)Oc2ncc(/C=C/c3ccccc3)cc2C1=O	-7	-2	2.5
O=C(NCc1ccccc1)C(c1ccc(-c2ccccc2)cc1)n1c(=O)c(-c2ccco2)nc2ccccc21 (stereo unspecified)	7	11	3.2
CCC(=O)N1[C@@H]2Cn3c(ccc(-c4ccncc4)c3=O)[C@H]1[C@@H](C(=O)N1CCc3ccccc3C1)[C@@H]2CO	2	1	-1.4
CC(=O)Nc1ccc2c(c1)C(=O)N(C)C[C@@H](C)[C@H](CN(C)C(C)=O)O2	2	9	-3.1
C[C@H](CO)N1C[C@H](C)[C@H](CN(C)Cc2ccncc2)Oc2ccc(NS(=O)(=O)c3cccs3)cc2CC1=O	-3	0	-0.7
COc1ccc(CN(C)C[C@H]2Oc3c(NC(=O)c4ccc(-c5nccs5)cc4)cccc3C(=O)N([C@H](C)CO)C[C@H]2C)cc1	1	-4	-0.5
COC(=O)[C@]12C[C@H](CC(=O)N3CCOCC3)C(=O)N(Cc3ccc4c(c3)OCO4)C1=C[C@H](C(C)(C)C)O[C@@H]2C	0	-5	-0.6
CCCC#Cc1ccc2c(c1)O[C@H](CN(C)C)[C@@H](C)CN([C@@H](C)CO)S2(=O)=O	-5	1	-0.9
Cc1ccc(S(=O)(=O)N(C)C[C@H]2Oc3ccc(NS(=O)(=O)c4c(C)noc4C)cc3C(=O)N([C@H](C)CO)C[C@@H]2C)cc1	-2	2	1.8
C[C@@H]1CN([C@H](C)CO)C(=O)Cc2cc(NC(=O)Nc3ccc4c(c3)OCO4)ccc2O[C@H]1CN(C)S(=O)(=O)c1ccc(Cl)cc1	-2	-6	-2.2
CN(C1CCCCC1)S(=O)(=O)c1ccc2c(c1)c(=O)c(C(=O)O)cn2C	-1	6	-2.9

(cont.)
Compound	Ecoli rRNA inh	Ecoli rRNA inh OD600	Ecoli rRNA inh RFP
CN1C(=O)c2cc(NC(=O)c3cccs3)ccc2OC[C@H]2O[C@@H](CC(=O)N3CCCCC3)CC[C@H]21	-2	-10	-1.4
C[C@@H]1CCCCO[C@@H](CN(C)CC2CC2)[C@@H](C)CN([C@H](C)CO)C(=O)c2cc(NC(=O)c3ccccc3)ccc2O1	3	2	-2.8
COc1ccccc1C(=O)Nc1ccc2c(c1)C(=O)N(C)C[C@@H](OC)[C@H](C)CN(C)[C@H](C)CO2	4	5	-1.9
O=C(CN1CCOCC1)N1CC(=O)N2[C@H](CO)[C@@H](c3ccc(/C=C/c4ccccc4)cc3)[C@H]2C1	4	9	0.1
C[C@@H]1CN([C@H](C)CO)C(=O)Cc2cc(NC(=O)Nc3ccccc3)ccc2O[C@H]1CN(C)S(=O)(=O)c1ccc(F)cc1	-3	-5	2.4
C[C@H](CO)N1C[C@H](C)[C@H](CN(C)C(=O)Nc2ccc3c(c2)OCO3)Oc2ccc(N(C)C)cc2C1=O	-4	7	-0.9
C[C@@H]1CN([C@@H](C)CO)C(=O)c2cc(C#CC3CCCCC3)cnc2O[C@H]1CN(C)C	4	-1	0.6
C[C@H]1CCCCO[C@@H](CN(C)C(=O)Nc2ccc(C(F)(F)F)cc2)[C@@H](C)CN([C@@H](C)CO)C(=O)c2cc(NC(=O)Nc3ccc4c(c3)OCO4)ccc2O1	1	3	2.4
C[C@@H](NC(=O)C[C@H]1C=C[C@@H](NC(=O)Cc2ccccn2)[C@@H](CO)O1)c1ccccc1	-1	9	-1.4
C[C@H]1CN([C@@H](C)CO)C(=O)c2cc(NC(=O)CCN3CCOCC3)ccc2O[C@H]1CN(C)Cc1ccc(C(=O)O)cc1	0	0	-1.2
C[C@@H]1CN([C@H](C)CO)C(=O)c2cccc(NC(=O)c3ccc(-c4nccs4)cc3)c2O[C@@H]1CN(C)S(=O)(=O)c1ccc(F)cc1	-2	4	-1.6
Cc1noc(C)c1S(=O)(=O)Nc1cccc2c1O[C@H](CN(C)C)[C@H](C)CN([C@H](C)CO)C2=O	5	5	0.1
CCCNC(=O)Nc1ccc2c(c1)OC[C@@H](C)N(CC1CCCC1)C[C@H](C)[C@@H](OC)CN(C)C2=O	0	-1	6.0
Cc1ccccc1-c1cnc2c(c1)C(=O)N([C@@H](C)CO)C[C@H](C)[C@@H](CN(C)C(=O)c1cccnc1)O2	-1	3	-2.0
Cn1cnc(S(=O)(=O)N2CCCCN3[C@H](CO)[C@@H](c4ccc(-c5cccc(F)c5)cc4)[C@@H]3C2)c1	0	-31	-1.0
CO[C@H]1CN(C)C(=O)c2ccc(NC(C)=O)cc2OC[C@H](C)N(C(=O)c2ccccc2F)C[C@H]1C	0	-11	0.4
C[C@H](O)C#Cc1ccc2c(c1)O[C@@H](CN(C)C(=O)Nc1ccccc1)[C@H](C)CN([C@@H](C)CO)S2(=O)=O	2	3	-1.8
Cc1noc(C)c1NC(=O)N(C)C[C@@H]1OCCCC[C@@H](C)Oc2ccc(NC(=O)NC3CCCCC3)cc2C(=O)N([C@H](C)CO)C[C@@H]1C	5	14	1.0
COc1cccc(S(=O)(=O)Nc2ccc3c(c2)C(=O)N(C)[C@H]2CC[C@H](CC(=O)NCC4CCCCC4)O[C@H]2CO3)c1	-10	-43	-8.7
COc1cccc(C(=O)N2C[C@@H]3[C@H](c4ccccc42)[C@@H](CO)N3C(=O)c2cccc(F)c2)c1	-4	5	-0.2

The list goes on:
Compound	Ecoli rRNA inh	Ecoli rRNA inh OD600	Ecoli rRNA inh RFP
COc1ccccc1S(=O)(=O)N[C@H]1CC[C@H](CCn2cc(C3CCCC3)nn2)O[C@H]1CO	-1	-4	2.4
CCCC#Cc1ccc([C@@H]2[C@H]3CN(C(=O)NC4CCCC4)CC(=O)N3[C@H]2CO)cc1	5	0	25
C[C@H]1CN([C@@H](C)CO)C(=O)c2cc(NC(=O)C3CCCCC3)ccc2O[C@@H]1CN(C)S(=O)(=O)c1ccccc1	-6	-6	-0.3
COc1ccc(S(=O)(=O)Nc2ccc3c(c2)C(=O)N([C@H](C)CO)C[C@@H](C)[C@H](CN(C)Cc2ccc4c(c2)OCO4)OCCCC[C@@H](C)O3)cc1	3	3	-0.6
C[C@H]1CN([C@@H](C)CO)C(=O)Cc2cc(NC(=O)Nc3ccc(C(F)(F)F)cc3)ccc2O[C@H]1CN(C)C	-2	-4	-0.5
CCCC(=O)Nc1ccc2c(c1)OC[C@H](C)N(CC1CCOCC1)C[C@H](C)[C@H](OC)CN(C)C2=O	-2	1	-1.0
C[C@H]1CCCCO[C@H](CN(C)S(=O)(=O)c2ccc(Cl)cc2)[C@@H](C)CN([C@@H](C)CO)C(=O)c2cc(NS(=O)(=O)c3ccccc3)ccc2O1	-2	3	1.2
Cc1ccc(S(=O)(=O)N(C)C[C@H]2OCCCC[C@@H](C)Oc3ccc(NC(=O)NC(C)C)cc3C(=O)N([C@H](C)CO)C[C@@H]2C)cc1	-7	-1	-2.7
C[C@@H]1CN([C@@H](C)CO)C(=O)c2cc(NS(=O)(=O)c3ccc(Cl)cc3)ccc2O[C@@H](C)CCCCO[C@@H]1CN(C)Cc1ccc(C(F)(F)F)cc1	1	5	-0.9
C[C@@H]1CCCCO[C@H](CN(C)C(=O)Nc2ccc(F)cc2)[C@H](C)CN([C@H](C)CO)C(=O)c2cc(NC(=O)Cc3ccccc3)ccc2O1	-3	-12	-2.2
C[C@@H]1CN([C@H](C)CO)C(=O)c2cc(NS(=O)(=O)c3ccc(Cl)cc3)ccc2O[C@@H]1CN(C)C(=O)Nc1cccc2ccccc12	-2	-4	1.7
CO[C@H](CN(C)S(=O)(=O)c1ccc(C)cc1)[C@@H](C)CN(Cc1ccccc1Cl)[C@H](C)CO	-2	4	1.7
C[C@@H]1CCCCO[C@H](CN(C)S(=O)(=O)c2ccc(Cl)cc2)[C@@H](C)CN([C@H](C)CO)C(=O)c2cc(NC(=O)CCC(F)(F)F)ccc2O1	1	1	-2.8
CCCS(=O)(=O)NC(=O)C1(C)CCCN(C(=O)CCc2cccs2)C1 (stereo unspecified)	15	20	0.0
CC(=O)N1CC2(C1)[C@@H](c1ccccc1)[C@@H](CO)N2CC1CCOCC1	5	7	-1.7
CO[C@@H]1CN(C)C(=O)c2ccc(NS(=O)(=O)c3ccc(C)cc3)cc2OC[C@H](C)N(C(=O)NC(C)C)C[C@H]1C	-3	-8	2.1
O=C(C[C@@H]1CC[C@@H]2[C@H](COC[C@@H](O)CN2CC2CC2)O1)NCC1CC1	-2	-6	-5.0
CN(C)CC#Cc1ccc([C@@H]2[C@H]3CN(C(=O)c4ccc5c(c4)OCO5)CCCCN3[C@H]2CO)cc1	1	-2	0.1
O=C(CC[C@H]1O[C@@H](n2ccc(=O)[nH]c2=O)[C@H](O)[C@@H]1O)N[C@H](Cc1ccccc1)C(=O)NCCCc1ccccc1	8	8	-1.9
CCCC(=O)Nc1ccc2c(c1)C(=O)N(C)C[C@@H](OC)[C@@H](C)CN(C(=O)c1ccccn1)[C@H](C)CO2	-1	-5	-0.4

New compounds follow.
Fields: Ecoli rRNA inh	Ecoli rRNA inh OD600	Ecoli rRNA inh RFP
COCC(=O)N(C)C[C@H]1Oc2ncc(C#Cc3ccc(OC)cc3)cc2C(=O)N([C@H](C)CO)C[C@H]1C
    -2	6	0.3
CCN1[C@H](C(=O)NCC2CC2)[C@@H](CO)[C@@H]2Cn3c(ccc(-c4ccccc4)c3=O)[C@@H]21
    -1	0	-0.2
C[C@@H]1CN([C@H](C)CO)C(=O)Cc2cc(NS(=O)(=O)c3ccccc3)ccc2O[C@H]1CN(C)S(=O)(=O)c1ccc(Cl)cc1
    -2	-2	-1.8
CCOc1ccc(/C(O)=C2\C(=O)C(=O)N(c3ccccn3)C2c2ccccc2F)c(C)c1 (stereo unspecified)
    -3	-6	-3.2
CCN(CC)c1cc2c(c3c1ccn3C)C1CCC2C1 (stereo unspecified)
    2	4	-2.3
Cc1ccsc1C(=O)N1CCCC1(C)C(=O)NCC(C)C (stereo unspecified)
    7	18	-1.0
OC[C@H]1[C@@H](c2ccc(-c3ccccc3F)cc2)[C@H]2CN(Cc3ccncc3)CCCCN21
    -2	-9	11
COc1ccc2c3c(n(C)c2c1)[C@H](CO)N(C(=O)Nc1ccc(F)cc1)CC31CN(C(=O)NC(C)C)C1
    -4	-4	-0.7
C[C@@H]1CN([C@H](C)CO)C(=O)CCCn2cc(nn2)CO[C@@H]1CN(C)Cc1ccc2c(c1)OCCN2C
    1	6	-1.1
